PKD1 kinase inh – inhibitors of human PKD1 kinase, biochemical, fluorescence polarization. Serine/threonine-protein kinase D1 (Homo sapiens), Q15139. PKD1 kinase fluorescence polarization assay. inhibition, %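 (about 10 µM by stock and volumes)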. 200,000 compounds, 0.056% hits;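 active = inhibition of 50% or more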;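 note: controls were vehicle for no effect and a reference inhibitor for full effect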
Target sequence (Q15139 whole entry, looked up): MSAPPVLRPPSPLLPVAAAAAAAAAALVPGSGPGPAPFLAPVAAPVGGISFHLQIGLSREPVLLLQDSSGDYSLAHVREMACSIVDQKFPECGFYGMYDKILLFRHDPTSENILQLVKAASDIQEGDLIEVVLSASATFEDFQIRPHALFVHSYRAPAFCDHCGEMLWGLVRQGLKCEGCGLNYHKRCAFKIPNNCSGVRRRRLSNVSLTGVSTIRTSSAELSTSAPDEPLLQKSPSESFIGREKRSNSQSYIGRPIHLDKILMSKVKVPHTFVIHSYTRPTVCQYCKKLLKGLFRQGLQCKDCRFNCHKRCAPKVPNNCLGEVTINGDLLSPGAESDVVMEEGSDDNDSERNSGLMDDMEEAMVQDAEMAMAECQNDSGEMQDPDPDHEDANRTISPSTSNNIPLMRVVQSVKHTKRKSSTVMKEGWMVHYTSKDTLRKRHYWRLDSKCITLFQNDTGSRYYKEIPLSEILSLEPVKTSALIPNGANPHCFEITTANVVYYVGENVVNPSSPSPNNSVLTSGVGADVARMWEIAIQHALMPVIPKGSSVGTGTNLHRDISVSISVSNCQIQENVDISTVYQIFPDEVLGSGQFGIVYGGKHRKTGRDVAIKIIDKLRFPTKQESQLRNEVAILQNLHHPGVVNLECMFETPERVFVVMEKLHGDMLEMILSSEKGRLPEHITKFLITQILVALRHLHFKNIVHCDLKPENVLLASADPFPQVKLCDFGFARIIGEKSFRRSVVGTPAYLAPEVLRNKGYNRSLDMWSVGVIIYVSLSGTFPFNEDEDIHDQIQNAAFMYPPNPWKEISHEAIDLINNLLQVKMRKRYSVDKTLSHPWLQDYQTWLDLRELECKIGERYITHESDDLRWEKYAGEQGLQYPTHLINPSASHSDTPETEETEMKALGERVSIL
RGS16-Gao – modulators of RGS16 binding to Galphao, primary screen, biochemical, human proteins, multiplexed bead flow cytometry | binding response (% of control), % at 10 µM | Regulator of G-protein signaling 16 (Homo sapiens) + Guanine nucleotide-binding protein … | 220,000 compounds, 0.38% hits | bead-based flow cytometry RGS16-Galphao binding, fluorescence; actives lie on both sides;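 active = below 25% or above 175%, edge rows of some plates excepted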;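 note: Galphao activated by GDP with aluminum fluoride before binding; 100% = wells without compound and 0% = beads without RGS; some results beyond the cut were filed as inactive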
INS promoter inh – inhibitors of insulin promoter-driven GFP, primary screen, imaging, TRM-6 cells (human fetal islet line), eGFP reporter, cell count | reporter expression induced with tamoxifen | inhibition, % at 2 µM | 130,000 compounds, 0.9% hits | AID 1273, 2008;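 active = inhibition above the mean plus 3 SD, with well images judged a real hit on visual review, cut at about 60% in these data, passing the limit was not always enough; inconclusive = inhibition over the cutoff but images rejected on review; inactive = inhibition not above the cutoff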
HSV augment – enhancers of HSV replication in host cells, fold increase, host cell viability. HSV replication augmentation in cells. maximum fold increase. 220,000 compounds, 0.005% hits. AID 1956, 2009;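 active = peak rise of 1.5-fold or more in the series; inconclusive = self-fluorescent or not available for retest; tested in PC3 cells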;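 note: first round at 10 µM; read as green reporter fluorescence; hits show the peak of a series up to 25 µM; 1 = signal of infected wells without compound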
GALR2 agonist – GALR2 receptor agonists, primary screen, cell-based; activation, %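 (tested at 5 µM)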; Galanin receptor type 2 (Homo sapiens), O43603; 140,000 compounds, 0.48% hits; GALR2-expressing cells, agonist activation read-out;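 active = above mean plus 3 SD of all compounds, about 5% in these data, not always enough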;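 note: 0% = vehicle buffer wells and 100% = reference agonist at full effect; tested in CHO reporter cells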
INS promoter inh cell count – recorded beside INS promoter inh, whose call it bears; normalized cell count, %; measured here: cell count, toxicity; reference of the scale not given here;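 cells exposed to compound for 48 h; stained nuclei by imaging scaled within each plate; lower means fewer cells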
HSV augment primary fold – also measured in HSV augment; calls as there; fold increase; compound at 10 µM; measured here: primary screen fold increase 10 uM; tested in PC3 cells;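 GFP signal in the first replicate; 1 = infected wells without compound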
The depositor's hits bear a star; i = inactive; ? = inconclusive; · = not tested or not shown.

SMILES	PKD1 kinase inh	RGS16-Gao	INS promoter inh	INS promoter inh cell count	HSV augment	HSV augment primary fold	GALR2 agonist
CCn1cc(C2CC(=O)NC2=O)c2ccccc21 (stereo unspecified)	·	105	·	·	i	1.2	·
CCN1CCN(Cc2c(O)ccc3c(=O)c(-c4ccccc4OC)coc23)CC1	-12	102	-14	111	i	0.84	-1.0
COc1ccc(-c2nn(-c3ccccc3)cc2/C=C(/C#N)C(N)=O)cc1[N+](=O)[O-]	-10	101	·	·	i	0.84	2.9
O=C(O)c1ccccc1N/N=C\c1ccnc2ccccc12	6	103	·	·	i	1.2	-3.8
COCc1cc(C)nc(OCC(=O)N/N=C/c2ccc(C)o2)c1C#N	-9	101	-6	123	i	1.1	·
Cc1ccccc1CC1(CO)CCCN(Cc2ccc(C#CC(C)(C)O)cc2)C1 (stereo unspecified)	-6	114	-4	125	i	0.92	·
CCCCOC(=O)Cn1cnc2ccc(Br)cc2c1=O	1	106	-82	146	i	1	0.3
CCn1c(SCC(=O)Nc2sc3c(c2C#N)CCC(C(C)(C)C)C3)nnc1-c1ccco1 (stereo unspecified)	2	99	·	·	i	0.99	-1.9
CCOc1ncccc1C(=O)Nc1cccc(Cl)c1Cl	-6	98	·	·	i	1.1	·
COc1ccc(-c2nn(-c3ccccc3)cc2/C=C(\CC(=O)O)c2nc3ccccc3s2)cc1OC	0	92	·	·	i	0.71	·
CC1(C)NC(=O)N(CCOc2cccc(Cl)c2Cl)C1=O	0	101	63	129	i	0.96	-2.0
O=C(N/N=C/c1ccc(N2CCCCC2)o1)C(O)(c1ccccc1)c1ccccc1	2	90	11	147	i	0.98	0.3
CCOC(=O)N1CCN(C(=O)c2cn(-c3ccc(C)c(C)c3)c(=O)c3ccccc23)CC1	6	99	·	·	i	0.96	0.0
NS(=O)(=O)c1cccc(NC(=O)CSc2ncc(C(F)(F)F)cc2Cl)c1	-11	103	11	114	i	0.97	-0.5
Cc1ncc(C23CC4CC(CC(C4)C2)C3)[nH]1	6	91	·	·	i	1.1	-2.0
O=C(NCc1ccco1)C(c1cccs1)N(Cc1ccccc1)C(=O)Cn1nnc2ccccc21 (stereo unspecified)	2	105	·	·	i	0.98	-3.3
Cn1c(SCCOc2ccc(F)cc2)nnc1-c1ccncc1	·	100	·	·	i	0.97	·
CCOC(=O)Cn1c(=O)oc2cc(S(=O)(=O)NCc3ccccn3)ccc21	-9	101	·	·	i	1	-4.3
CCC(C)NS(=O)(=O)c1ccc(NS(C)(=O)=O)cc1 (stereo unspecified)	-2	100	-32	75	i	0.98	-0.6
CCc1cc2c(COC(=O)c3c(C)noc3C)cc(=O)oc2cc1O	-11	103	·	·	i	0.65	·
Cc1cc(Oc2ccc(OCC(N)=O)nn2)nc(Cl)n1	-6	106	·	·	i	1	·
CCOC(=O)c1sc(N)c(C(=O)OC)c1C	-1	54	·	·	i	1.1	·
COCCNC(=O)c1c(CSc2ccc(F)cc2)noc1C(=O)NCc1ccccc1	0	96	·	·	i	0.9	-2.5
CCc1nnc(NC(=O)CSc2nnc(-c3ccccc3OC)n2-c2ccc(C)cc2)s1	4	104	23	81	i	0.98	-3.1
COC(=O)/C(=C1/Oc2cc3c(cc2S1)OCO3)C(F)(F)F	7	82	0	108	i	1	-1.4

5 structures out of the list, sorted by SMILES length, highest first:
SMILES	PKD1 kinase inh	RGS16-Gao	INS promoter inh	INS promoter inh cell count	HSV augment	HSV augment primary fold	GALR2 agonist
O=C(NCc1ccco1)C(c1cccs1)N(Cc1ccccc1)C(=O)Cn1nnc2ccccc21 (stereo unspecified)	2	105	·	·	i	0.98	-3.3
COC(=O)/C(=C1/Oc2cc3c(cc2S1)OCO3)C(F)(F)F	7	82	0	108	i	1	-1.4
CCC(C)NS(=O)(=O)c1ccc(NS(C)(=O)=O)cc1 (stereo unspecified)	-2	100	-32	75	i	0.98	-0.6
O=C(O)c1ccccc1N/N=C\c1ccnc2ccccc12	6	103	·	·	i	1.2	-3.8
CCn1cc(C2CC(=O)NC2=O)c2ccccc21 (stereo unspecified)	·	105	·	·	i	1.2	·

Next part.
SMILES	PKD1 kinase inh	RGS16-Gao	INS promoter inh	INS promoter inh cell count	HSV augment	HSV augment primary fold	GALR2 agonist
CC(=O)Nc1ccc(S(=O)(=O)Oc2ccc(C(=S)N3CCC(O)CC3)cc2)cc1	1	103	-69	74	·	·	-1.7
CCCCC(=O)Nc1cccc(NC(=O)c2cccc(Br)c2)c1	-5	106	-35	120	i	0.97	·
O=C(COC(=O)Cc1ccc(Br)cc1)NC12CC3CC(CC(C3)C1)C2	-3	104	0	131	·	·	-4.5
O=C(CSc1nccc(=O)[nH]1)N1CCCc2ccccc21	-14	101	-19	142	i	1.1	-3.0
O=C(COC(=O)c1cccc(S(=O)(=O)N2CCOCC2)c1)Nc1nc(-c2ccccc2Cl)cs1	-8	100	-31	254	i	0.83	-1.3
Cc1ccc(CSC2=NCCN2C(=O)c2ccco2)cc1	-14	107	·	·	i	1	-2.2
Cc1cc2ccccc2n2c(SCC(=O)NCc3cccs3)nnc12	-6	98	18	102	i	0.7	-0.2
COc1ccc(NC(=O)Cn2cnc3c(cnn3C(C)(C)C)c2=O)cc1OC	4	103	14	114	i	0.8	·
COc1ccc(C2=NN(C(=O)c3cccs3)C(O)(C(F)(F)F)C2)cc1 (stereo unspecified)	-3	100	·	·	i	0.84	·
C=CCc1ccc(OCCOCCN(C)C)c(OC)c1	-1	106	17	134	i	0.91	-0.5
Cc1ccc(C)n1-c1ccccc1N	-4	65	-198	100	i	0.88	-2.1
O=[N+]([O-])c1ccc(N2CCN(S(=O)(=O)c3ccccc3)CC2)cc1NCCN1CCOCC1	2	181	-14	108	i	1.1	-2.9
C[C@@H](C(=O)OCC(=O)NCCc1ccc(S(N)(=O)=O)cc1)N1C(=O)C2CCCCC2C1=O (stereo partly specified)	5	105	29	103	i	1	·
CCC(NC(=O)Nc1cc(C)on1)(C(F)(F)F)C(F)(F)F	·	96	·	·	i	1.1	·
COC(=O)c1ccc(NC(=O)c2ccc(OC(C)=O)c(OC)c2)cc1	-3	98	·	·	i	1	·
O=C(CSc1nnc(-c2ccncc2)n1Cc1ccco1)Nc1ccccc1Cl	-3	97	·	·	i	1	0.4
Cc1ccc(NC(=S)Nc2ccc3[nH]c(=O)[nH]c3c2)cc1C	·	97	·	·	i	0.97	·
O=C1Nc2c(c(=O)[nH]c(=O)n2Cc2ccccc2)C1(NS(=O)(=O)c1ccccc1)C(F)(F)F (stereo unspecified)	-8	116	·	·	i	1.1	·
Cc1sc2ncnc(Oc3ccc(-n4ccnc4)cc3)c2c1C	-4	102	26	108	i	0.8	-1.9
O=C(c1ccc(F)cc1)N1CCC(c2ccccc2)C1 (stereo unspecified)	·	100	·	·	i	1.2	·
CCc1ccc(CN(C)C(=O)CCc2nc3ccccc3n(-c3ccc(OC)cc3)c2=O)cc1	2	95	·	·	i	0.87	·
Cc1ccc(C(=O)OCC(=O)Nc2ncc(C(F)(F)F)cc2Cl)cc1NC(=O)c1ccco1	6	109	-8	106	i	0.93	-0.8
COc1ccccc1C(=O)NC(=Nc1nc2ccccc2o1)NC(=O)c1ccccc1OC	-12	68	-42	123	i	0.91	-3.1
Cc1ccc(-c2cc(C(=O)O)c3ccccc3n2)c(C)c1	·	93	·	·	i	0.99	·
COC(=O)COc1ccc(S(=O)(=O)NCc2cccnc2)cc1	-16	113	-460	64	i	1.1	-4.0
(further entries)
SMILES	PKD1 kinase inh	RGS16-Gao	INS promoter inh	INS promoter inh cell count	HSV augment	HSV augment primary fold	GALR2 agonist
CCOC(=O)C1=C(CSc2nccn2C)NC(=O)NC1c1cc(C)ccc1C (stereo unspecified)	-7	104	20	119	i	0.91	-1.5
O=C1C=C(Nc2ccc(O)cc2)C(=O)c2ccccc21	·	98	·	·	i	0.63	·
COc1ccc(-c2cn(-c3ccc(Cl)cc3)c3[n+]2CCCCC3)cc1	·	104	·	·	i	0.91	·
CN(C)S(=O)(=O)c1ccc2[nH]cc(/C=C/c3nc4ccccc4c(=O)n3-c3ccccc3)c2c1	0	99	-55	102	i	0.78	0.7
CC(NC(=O)c1cccc(C(F)(F)F)c1)C(c1ccccc1)N1CCOCC1 (stereo unspecified)	4	104	-60	46	i	0.98	·
Cc1ccc2c(c1)NC(=O)C(CC(=O)NCCN(CC(C)C)CC(C)C)O2 (stereo unspecified)	-4	86	·	·	i	1	-0.7
COc1ccc(C(CC(=O)NCc2ccccc2)Sc2n[nH]c(-c3ccc(Cl)cc3)n2)cc1 (stereo unspecified)	1	112	-15	106	i	0.69	0.6
O=C(O)c1cccc(NC(=O)c2cn(-c3ccccc3)nc2-c2ccncc2)c1	-3	98	-6	92	i	1	·
COc1ccc(CNC(=O)CN(Cc2cccs2)C(=O)CCC(=O)Nc2ccccn2)cc1	-3	102	·	·	i	0.98	·
Cc1cc(NCCO)nc(N2CCOCC2)n1	-7	103	21	105	i	0.88	0.0
COc1ccc(OC)c(NC(=O)CN(C)S(=O)(=O)c2ccc(Cl)cc2)c1	0	101	·	·	i	0.97	·
O=c1c2cc(F)ccc2[nH]c(=S)n1CCCN1CCOCC1	-5	102	-29	114	i	0.91	-1.2
OCCN1CCOCCN(CCO)CCN(CCO)CC1	-7	96	·	·	i	0.96	-3.2
Cc1cc2c(c(=O)n1Cc1cccnc1)C(c1ccc(F)cc1)C(C#N)=C(N)O2 (stereo unspecified)	-10	115	-8	120	i	0.98	0.0
CS(=O)(=O)c1ccc(C(=O)OCC(=O)NC(=O)C2CCCCC2)cc1[N+](=O)[O-]	-8	99	·	·	i	0.79	·
COc1cccc(-n2nnnc2SCC(=O)Nc2ccc(C(C)=O)cc2)c1	-8	110	-86	102	i	0.91	0.2
CCc1c(C)[nH]c2ccccc2c1=O	5	101	·	·	i	1.1	-1.8
CSc1nc2c(c(=O)[nH]1)C(c1ccc(C(F)(F)F)cc1)CC(=O)N2 (stereo unspecified)	0	110	·	·	i	1.1	·
O=C(CCCNC(=O)/C(=C/c1ccc(Br)cc1)NC(=O)c1ccccc1)OCc1ccccc1	-8	98	·	·	i	1.1	-1.4
Cc1ccc(NC(=O)C2CCN(c3cnccn3)CC2)cc1	0	102	·	·	i	0.99	·
Cc1cccc(NC(=O)C2CC(=O)OC23CCCCC3)c1 (stereo unspecified)	2	105	i	44	i	0.98	1.9
O=C(Nc1ccc(OC(F)(F)C(F)F)c(NC(=O)c2ccc(F)cc2)c1)c1ccc(F)cc1	-4	·	27	124	i	0.81	0.3
CC(C)c1ccc(/C=C/C2=NNC(=O)CC2)cc1	-6	112	2	61	i	0.74	·
Cc1ccc(NC(=O)COC(=O)Cc2ccsc2)cc1S(=O)(=O)N1CCOCC1	-11	99	18	115	i	0.94	-0.8
COc1ccc([N+](=O)[O-])cc1NC(=O)Cc1noc2ccc(C)cc12	6	100	·	·	i	1	·
(further entries)
SMILES	PKD1 kinase inh	RGS16-Gao	INS promoter inh	INS promoter inh cell count	HSV augment	HSV augment primary fold	GALR2 agonist
CCOC(=O)N1CCN(C(=O)CSc2nnc(C3COc4ccccc4O3)o2)CC1 (stereo unspecified)	5	102	·	·	i	0.84	-0.7
O=[n+]1c2c(n([O-])c3cc(F)c(N4CCCC4)cc31)CCCC2	-2	99	·	·	?	·	-3.6
COCCOC1CCN(Cc2cn(Cc3ccccc3)nc2-c2cc3ccccc3o2)CC1	-2	104	·	·	i	0.91	·
CCOc1ccc(CC2CCC(=O)NC2=O)cc1 (stereo unspecified)	-12	116	·	·	i	1	-1.9
Cc1cccc(/C=C2/C(=O)/C(=C/c3ccccc3C)C3CCC2N3C)c1 (stereo unspecified)	-12	97	·	·	i	1.1	-0.5
COc1ccc(S(=O)(=O)N2CCC(C(N)=O)(N3CCCCC3)CC2)cc1	-8	94	·	·	i	0.81	-1.8
Cc1oc(C(=O)O)cc1CSCc1ccoc1C(=O)O	-18	97	-27	142	i	0.98	-3.4
COc1cccc(-n2ccnc2SCC(=O)N2CCCc3ccccc32)c1	5	97	·	·	i	0.91	-0.4
CC(C)N1CCN(Cc2nc3c(s2)CCCC3)CC1CCO (stereo unspecified)	0	100	·	·	i	0.96	·
Brc1ccccc1-c1nnc(COc2ncnc3ccccc23)o1	·	91	·	·	i	1	·
COCCn1nnnc1C(C(C)C)N1CCCC(C)C1 (stereo unspecified)	-3	97	·	·	i	0.95	·
CCCOc1ccc(-c2c(C(=O)N/N=C/c3ccccc3)nnn2-c2nonc2N)cc1	·	98	·	·	i	1.2	·
